Screening results (PubChem)
gsp antag = antagonists of gsp mutant (McCune-Albright syndrome); gsp-mutant cells, cAMP HTRF, 30 min; control for the full effect not named in the record; Potency, µM (highest dose often 76.9 µM), without a hit: at the top dose activity change, negative = inhibition, most hits filed as inhibitors; actives 0.4% (n = 340,000); active = falling curve of any shape with a large fitted effect; inconclusive = falling curve, mostly with a smaller effect; inactive = flat or rising curve; cell line not stated here;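 also: intracellular cAMP measured with PDE inhibitor Ro 20-1724 present during compound exposure; potency is read from the fitted curve at half-maximal effect; % is scaled to controls: 0 for no effect and ±100 for the full control effect; nearly all actives have a fitted effect of over 65% in size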
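HTRF cAMP read-out (cAMP-d2 plus anti-cAMP antibody-K in lysis buffer, 30 min RT). Before lysis, cells are exposed to compounds with […] for 30 min at 37C in DPBS containing Ca/Mg, BSA and Tween 20.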
ClpP mod = qHTS Assay for Activators of ClpP. AID 651965, 2013. Potency, µM (top dose mostly 57.5 µM), for the others: top-dose activity change, negative = active. ATP-dependent Clp protease proteolytic subunit (Bacillus subtilis (strain 168)), P80244. purified B. subtilis ClpP, FRET peptide cleavage, 20 min. actives 1.9% (n = 340,000); active = well fitted falling curve with a large enough effect; inconclusive = small, poorly fitted or top-dose-only effect; inactive = no such curve, though single readings can be large or run the other way; also: potency is read from the fitted curve at half-maximal effect; the source files actives as falling curves though it sought activators and does not explain the sign; nearly all actives have a fitted effect of over 65% in size; many hits overshoot -100%
Target sequence (P80244 whole entry, looked up): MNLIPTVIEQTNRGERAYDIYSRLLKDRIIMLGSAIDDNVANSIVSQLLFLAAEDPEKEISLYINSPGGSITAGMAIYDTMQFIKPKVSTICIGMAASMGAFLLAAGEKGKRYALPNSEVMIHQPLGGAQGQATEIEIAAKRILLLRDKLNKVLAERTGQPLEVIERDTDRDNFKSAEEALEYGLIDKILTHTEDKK
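Buffer: 100 mM Tris/HCl pH8, 100 mM KCl, 0.05% low protease BSA, 2.5% glycerol, 0.01% Tween-20. ClpP 10 microg/mL final; 20 min RT; delta FRET normalized to ADEP and DMSO controls.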
TRPV1 potentiator = potentiators of human vanilloid receptor 1 (TRPV1); Q8NER1; TRPV1-expressing cells, Fluo-8 calcium influx, capsaicin EC20 potentiation; host cell line not named in the record; control for the full effect not named in the record; potentiation, % at 8.33 µM; actives 0.02% (n = 320,000); active means potentiation above 80%; inconclusive means 30% to 80%; inactive means below 30%; also: 0% is about no effect
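Cells expressing TRPV1 were dye-loaded with Fluo-8 and read kinetically: 10 s baseline, 3 min after compound (agonist portion), then 2 min after EC20 capsaicin (allosteric enhancer portion). Calcium-bound dye fluorescence at 480/520 nm.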
Menin MLL FP FL = inhibitors of human menin-MLL interaction, wild-type MLL peptide; Fluorescence polarization, fluorescein-MLL peptide displacement from menin; FP activity change, % at 61.4 µM; 290,000 tested, under 10 active; AID 1766; inconclusive = falling polarisation curve, or a change in total fluorescence; inactive = total fluorescence flat and polarisation flat or rising; no compound was filed as active; the % refers to the polarisation; negative = inhibition;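 also: % of control where 0% means no effect; inhibitors lower the polarisation; unlabelled MLL peptide was the positive control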
D2 potentiator = human D2 receptor positive allosteric modulation; DiscoveRx D2 beta-arrestin cells, luminescence, 90 min; 100% = 57 uM dopamine signal; potentiation, % (no concentration beside the values); actives 0.23% (n = 360,000); P14416; active = potentiation of 50% or more; inconclusive = 30% to 50%; inactive = 30% or less;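 also: compound concentration not given in the record; tested on top of an EC20 dose of dopamine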
Target sequence (P14416 whole entry, looked up): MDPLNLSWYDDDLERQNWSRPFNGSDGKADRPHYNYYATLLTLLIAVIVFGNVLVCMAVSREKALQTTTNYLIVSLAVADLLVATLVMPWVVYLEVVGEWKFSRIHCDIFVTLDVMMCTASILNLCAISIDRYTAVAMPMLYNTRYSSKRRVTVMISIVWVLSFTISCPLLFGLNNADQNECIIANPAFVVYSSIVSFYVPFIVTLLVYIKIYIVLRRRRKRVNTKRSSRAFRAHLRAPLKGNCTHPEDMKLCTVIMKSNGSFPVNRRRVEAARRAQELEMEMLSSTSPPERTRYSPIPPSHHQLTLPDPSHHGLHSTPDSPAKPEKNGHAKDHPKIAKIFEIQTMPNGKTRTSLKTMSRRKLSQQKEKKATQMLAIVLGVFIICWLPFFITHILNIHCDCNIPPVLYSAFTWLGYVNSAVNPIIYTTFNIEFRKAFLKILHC
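PathHunter D2 cells, attached overnight at 37 deg C, received compound in DMSO plus dopamine at EC20 (50 nM final) for 90 min at 37 deg C. Beta-arrestin recruitment was read as luminescence after 1 h with detection reagent at ambient temperature.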
gsp ag = agonists of gsp mutant (McCune-Albright syndrome). gsp mutant cells, cAMP HTRF, 30 min; control for the full effect not named in the record. Potency, µM (top dose mostly 76.9 µM), inactives show at the top dose activation (cAMP increase), actives largely listed as activators. actives 0.13% (n = 340,000); active = well fitted activation curve with a large enough effect; inconclusive = small, poorly fitted or top-dose-only effect, or another doubt; inactive = no such curve, though single readings can be large or run the other way; cell line not stated here;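 also: phosphodiesterase inhibitor Ro 20-1724 added with compounds to block cAMP breakdown; potency is read from the fitted curve at half-maximal effect; nearly all actives have a fitted effect of over 60% in size; about a fifth of the inactives were tested at one dose only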
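Cells in DMEM/10% FBS with G418 were pretreated with compounds in DMSO plus […] (300 uM stock) for 30 min at 37C. cAMP was measured by HTRF (cAMP-d2 plus anti-cAMP antibody-K) after 30 min at room temperature.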
Sfp inh = Sfp phosphopantetheinyl transferase inhibition | Biochemical Sfp PPTase activity, qHTS | Potency, µM, inactives show max response, negative = inhibition, hits mostly inhibitors | AID 1490 | Q9F4F7 | actives 3.5% (n = 310,000); active = well fitted inhibition curve with a large enough effect; inconclusive = small, poorly fitted or top-dose-only effect, or another doubt; inactive = no such curve, though single readings can be large or run the other way;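 also: the enzyme is Sfp with the accession as filed and its product quenches rhodamine fluorescence; potency is read from the fitted curve at half-maximal effect; 0% = enzyme reaction without inhibitor and -100% = no enzyme wells; top concentration of the series not given in the record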
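Buffer: 50 mM Hepes-Na pH 7.6, 10 mM MgCl2, 0.01% Nonidet P-40, 0.01% BSA. Enzyme 15 nM, pre-exposed to compound 15 min; substrates then added and fluorescence change tracked over 30 min.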
* = called active by the depositor; ? = inconclusive; / = no result given; & = joins results of further samples; [ ] = remark or other dose.

nr	compound	Menin MLL FP FL	ClpP mod	gsp ag	Sfp inh	D2 potentiator	TRPV1 potentiator	gsp antag
1	CC(=O)Nc1ccccc1C(=O)N1CCc2ccccc21	6.2	-2.2%	-29.8%	6.1%	-2.9	-8.2	4.8%
2	O=C(CS(=O)CC(=O)N(c1ccccc1)C(C(=O)NC1CCCC1)c1cccs1)Nc1ccc(F)cc1 (stereo not given)	-1.0	-2.3%	-7.7%	23.9%	-9.5	5.7	0.5%
3	CSc1nnc(-c2ccccc2N=Cc2c(C)[nH]n(-c3ccc4ccccc4c3)c2=O)c(=O)[nH]1	5.7	-9.4%	9.2%	-2.5%	22.4	16.8	?
4	Cn1c(COc2ccccc2)nnc1SCc1cc(=O)[nH]c2ccccc12	-1.4	-22.0%	20.4%	-2.7%	0.6	-26.6	6.9%
5	Cc1cc(C)c(NC(=O)CNC(=O)CN2C(=O)NC3(CCCc4ccccc43)C2=O)c(C)c1 (stereo not given)	/	-1.5%	-22.3%	/	-12.9	9.2	-4.2%
6	CC1CCC(NC(=O)c2ccc(Br)o2)CC1 (stereo not given)	/	-0.1%	-70.3%[inhibitor]	/	-24.8	/	/
7	O=C(COc1ccccc1)Nc1ccc2oc(=O)ccc2c1	1.6	/	?	10.6%	-0.3	-1.7	-2.7%
8	O=C(NCc1ccccn1)c1nn(-c2ccccc2)c(=O)c2ccccc12	-0.9	/	7.4%[15.4 µM]	5.6%	-6.5	-4.2	-60.7%
9	NNC(=O)c1csc(-c2ncc(C(F)(F)F)cc2Cl)n1	2.9	1.2%	-5.8%[15.4 µM]	-6.6%	-12.4	3.1	1.9%
10	O=C(Nc1ccccc1Cl)C1Cc2ccccc2O/C1=N\O (stereo not given)	4.0	2.3%	-0.9%	2.5%	-3.8	28.2	-3.1%
11	CC(=O)c1sc(-c2ccccc2Cl)nc1C	1.6	3.9%	6.3%	15.3%	-5.5	-9.8	4.3%
12	Cc1ccc(O)c(-c2cc(C(=O)NCc3ccccc3)[nH]n2)c1	-3.4	-1.0%	-2.1%[15.4 µM]	3.1%	8.7	-4.5	1.6%
13	O=C(Nc1nccs1)C1=COCCO1	/	-2.6%	-11.4%	/	-2.1	/	3.0%
14	CCCSC1=N/C(=C\c2ccsc2)C(=O)S1	0.4	0.9%	-75.7%[inhibitor]	5.6%	-14.7	7.9	-12.1%
15	NS(=O)(=O)c1ccc(CCNC(=O)c2cc3ccccc3s2)cc1	?	/	-6.0%[15.4 µM]	-7.1%	-1.1	4.9	-10.2%
16	CCOC(=O)c1sc(N(C)C(C)=O)nc1C	0.3	0.7%	4.7%[15.4 µM]	13.0%	-5.9	13.2	-1.4%
17	CC(C)CCNC(=O)CCc1nnc2n(CCCOC(C)C)c(=O)c3ccccc3n12	-5.6	-0.5%	9.9%[15.4 µM]	9.4%	-5.4	5.4	10.5%
18	O=C(N/N=C/c1ccc2c(c1)OCO2)c1cc(-c2ccco2)nc2ccccc12	/	/	-16.1%[15.4 µM]	/	1.4	-10.5	15.3%
19	Cc1ccc(C)c2[nH]c(=O)c(C(c3nnnn3C3CCCC3)N3CCOCC3)cc12 (stereo not given)	1.2	25.1µM*	13.2%	3.2%	-5.1	-8.4	1.8%
20	Cc1noc(C)c1COc1ccccc1C(=O)N1CCN(S(=O)(=O)c2ccccc2Br)CC1	/	2.4%	-0.6%	/	-6.6	/	-6.0%
21	COc1ccc(CNc2ncccn2)cc1OC	3.9	/	-31.9%[inhibitor]	19.4%	-3.8	-0.5	1.4%
22	COc1cc(OC)cc(-c2c(C#Cc3ccsc3)c3cc(-c4ccc5c(c4)OCCO5)ccc3n2C)c1	/	4.5%	16.4%	/	-9.1	-1.4	2.9%
23	CN1CCN(CCCNC(=O)c2cc3c(=O)n(C)c4ccccc4c3s2)CC1	-0.1	4.5%	-52.8%[inhibitor]	25.8%	-7.4	-4.5	9.0%
24	Cn1c(Cc2ccccc2)nnc1SCC(=O)N1CCN(c2ccccc2)CC1	-0.7	0.8%	?	-5.5%	2.9	-24.6	0.9%
25	CC1CCCCC1NS(=O)(=O)c1ccc(-n2cnnn2)cc1 (stereo not given)	5.5	3.3%	-52.7%[inhibitor]	8.2%	10.4	1.8	11.4%
26	CCOC(=O)[C@@H]1[C@H]2COc3ccccc3[C@@H]2N2C(=O)N(c3ccc(C)cc3)C(=O)[C@]12C	2.1	-0.5%	0.3%	7.4%	-9.4	7.6	-6.4%
27	O=Nc1c(O)n(Cc2c(Cl)cccc2Cl)c2ccccc12	5.9	-14.4%	-24.4%	-2.5%	-3.7	-2.5	-18.2%
28	C=CCn1cnc2c(oc3ccccc32)c1=O	8.6	-0.5%	-2.2%[15.4 µM]	4.5%	-1.3	7.0	1.5%
29	CCCCCC(=O)NC(=S)Nc1ccc2oc(=O)ccc2c1	-5.5	-1.6%	10.6%[15.4 µM]	4.8%	-5.4	-15.5	-4.6%
30	CCn1c(SCC(=O)Nc2nc(C)c(C)s2)nnc1-c1cccnc1	1.4	-1.7%	-29.2%	-4.1%	-6.6	-4.1	6.0%
31	O=C(Nc1ccc2c(c1)CCC2)Nc1ccccc1F	/	-3.9%	3.8%	6.3%	-11.1	-7.2	3.4%
32	[O-][n+]1c2ccccc2c2n1CCCN=C2c1ccc(Cl)cc1	/	-4.4%	/	/	-9.5	-21.1	7.3%
33	CC(C)c1cc(N2CCC(=O)NC2=O)cc(C(=O)O)c1O	1.5	?	-3.8%	23.6%	-7.8	-10.7	7.8%
34	C=CCN(c1ccccc1)S(=O)(=O)c1cccc2cccnc12	-0.5	3.0%	9.6%	-6.1%	-4.7	-30.1	-1.8%
35	Cc1ccc(NC(=O)NC(=O)COc2c(F)c(F)cc(F)c2F)c(C)c1	/	1.6%	-10.5%[15.4 µM]	/	-8.6	/	12.7%
36	COc1ccc(C(CNC(=O)COc2ccccc2C#N)N2CCOCC2)cc1 (stereo not given)	0.1	1.6%	-26.6%	14.9%	-18.9	-2.8	2.1%
37	COc1cc2[nH]c3c(=O)n4c(nc3c2cc1OC)SCCC4	-2.2	/	-17.3%	0.2%	13.9	5.3	-5.3%
38	Cc1cccn2c(=O)c3cc(C(=O)NCCN4CCOCC4)n(C)c3nc12	/	?	25.4%	1.0%	-13.7	-0.8	5.8%
39	Cc1ccc2cccc(S(=O)(=O)N3CCCc4ccccc43)c2n1	1.7	2.9%	-14.6%	17.9%	-5.8	4.1	-33.3%
40	C=C(C)/C=N/NC(=S)Nc1ccc(S(=O)(=O)N2CCOCC2)cc1	1.2	/	-3.9%[15.4 µM]	-16.5%	0.2	-16.2	-9.4%
41	CC(C)CCNC(=O)C(c1ccc(O)cc1)N(C(=O)C1COc2ccccc2O1)c1cccc(O)c1 (stereo not given)	-1.6	/	-10.0%[15.4 µM]	-7.3%	-11.9	-9.1	?
42	Cc1noc(C)c1C(=O)OCC(=O)N1CCN(S(=O)(=O)c2ccc3ccccc3c2)CC1	3.9	-1.1%	-15.6%	2.3%	-16.7	12.6	-13.8%
43	COc1ccc(CCC(=O)OCC(=O)N2CCN(S(=O)(=O)c3ccc(C)cc3C)CC2)cc1	/	1.9%	-6.8%[15.4 µM]	/	-34.6	-3.2	-0.2%
44	CCC1CCC2(CC1)NC(=O)N(CC(=O)NCc1ccc(Cl)cc1)C2=O (stereo not given)	/	-1.4%	14.8%	/	-1.5	/	20.3%
45	O=C(Oc1ccc2c(c1)OCC2=O)c1ccc(Cl)cc1	3.1	/	-20.7%[15.4 µM]	5.1%	-4.9	2.0	5.4%
46	Cn1nnc2cc(C(=O)N3CCN(c4ccccn4)CC3)ccc21	-5.8	/	15.9%	21.0%	0.7	13.9	7.3%
47	NC(=O)N1CCN(CCCN2c3ccccc3Sc3cc(Cl)ccc32)CC1	/	3.1%	?	/	-23.5	/	/
48	O=C(NCc1ccccc1)C1CC(=O)N(C2CCCCC2)C1 (stereo not given)	/	0.1%	2.2%	21.2%	-0.3	6.8	7.0%
49	CCCNC(=O)Cn1cccc1C(=O)c1ccccc1	2.6	-0.3%	-9.0%	22.8%	13.0	13.7	11.0%
50	Cn1nc(C(C)(C)C)c([N+](=O)[O-])c1C(=O)NC1CCCCC1	/	-0.8%	3.9%	10.3%	-4.5	-10.3	-15.4%
51	O=C(CN1CCCC1)Nc1c2c(cc3c1CCC3)CCC2	-1.2	-6.6%	-37.5%	16.8%	-29.8	-8.8	15.6%
52	O=C(c1ccc(Cl)c(Cl)c1)N1CCC(=O)N(C(COCc2cccc(Cl)c2)Cc2ccccc2)CC1 (stereo not given)	-0.5	1.5%	-16.8%	19.8%	-3.1	-5.2	-16.4%
53	Clc1ccc2nc(CN3CCCc4ccccc43)cn2c1	2.1	0.8%	-68.4%[inhibitor]	-22.1%	-10.2	2.8	2.5%
54	CCc1nc2c(c(=O)c3ccccc3n2C)c(=O)n1CCc1ccc(OC)cc1	5.0	/	/	25.8%	/	1.8	/
55	O=C1CCN(Cc2ccc(O)cc2)CCN1CCO	-1.3	-3.5%&0.1%	/	1.8%	-3.5	5.5	4.5%
56	COc1cccc(NC(=O)CN(C)C(=O)c2ccc(OCC3CCCO3)cc2)c1 (stereo not given)	/	-4.0%	14.0%	/	-6.0	28.6	9.9%
57	CCOC(=O)c1cn(CC)c2cc(Cl)c([N+](=O)[O-])cc2c1=O	9.3	-1.8%	?	8.1%	7.6	-13.7	1.2%
58	C/C(=N\N=C1/SC(CC(=O)O)C(=O)N1c1ccccc1)c1ccc(C)cc1 (stereo not given)	0.7	-1.7%	-25.6%	15.2%	-6.3	3.6	25.1µM*
59	COc1cc(OC)c(C2N(C)c3ccccc3N2C)cc1OC	1.7	/	/	-12.5%	/	10.7	/
60	Nc1nonc1-n1nnc(C(=O)N/N=C/c2ccc(Br)cc2)c1CN1CCOCC1	-5.2	-1.5%	0.1%	-12.6%	-4.3	2.6	-30.4%
61	Cn1c(N)c(C(=O)COC(=O)c2ccccc2C(=O)c2ccccc2)c(=O)n(C)c1=O	/	-1.5%	24.2%	/	-0.6	6.6	3.2%
62	COc1ccc(C(=O)/C=C/c2ccc(O)cc2)cc1	?	-4.3%	-51.4%[inhibitor]	4.6%	-3.4	-10.1	-13.7%
63	O=C(O)Cc1sc(-c2ccccc2)nc1-c1cccs1	-0.3	-19.0%	12.6µM*	0.3%	-7.3	-0.3	-15.4%
